# A1 inhib: inducers of caspase activity in MEF A1-2A-BIM cells, primary screen, A1 inhibitor project, cell-based, CaspaseGlo luminescence; caspase-Glo luminescence, 3 h; percent of clofoctol signal, DMSO as zero; caspase activation, % (no concentration beside the values); actives 0.51% (n = 21,000);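 active = most replicate scores above 10, or exactly half above 10 with mean activity above 10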;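 also: effector caspase 3 and 7 activity cleaving a DEVD luciferin substrate; 50 nL library stock added to about 30 µL; numbers are from one replicate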
# BJeLR viab HTS: BJeLR cell viability loss, primary screen, luminescence, CellTiterGlo ATP; viability loss activity score, % (test concentration not listed); actives 0.64% (n = 30,000); BJeLR fibroblasts viability, 48 h; HRASV12, hTERT and SV40 LT/ST transformed; in the data active = viability loss activity score above about 50%; about a fifth of its hits are not listed in these tables;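 also: higher score means fewer live cells and less ATP luminescence; stock transfer was 50 or 100 nL into about 30 µL; 0% = vehicle wells and 100% = a reference killing control; one replicate is shown; the record names a cut of 85%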
# * marks the source's active call; other numbers are inactive results; nt = not tested or not shown.
canonical_smiles	A1 inhib	BJeLR viab HTS
COc1ccc(NC(=O)Nc2ccc3c(c2)C(=O)N([C@@H](C)CO)C[C@@H](C)[C@H](CN(C)Cc2ccc(C(F)(F)F)cc2)O3)cc1	-0.9	15.3
C[C@H]1CN([C@@H](C)CO)C(=O)c2cc(NS(C)(=O)=O)ccc2O[C@H]1CN(C)C(=O)Nc1ccc(C(F)(F)F)cc1	0.1	1.9
O=C1/C(=C/c2ccc(O)cc2)SC(=S)N1CCc1ccccc1	1.1	2.2
C[C@@H]1CN([C@@H](C)CO)C(=O)c2cc(NS(C)(=O)=O)ccc2O[C@@H]1CN(C)Cc1ccc(C(F)(F)F)cc1	0.1	1.8
S=c1[nH]nc(CCCc2n[nH]c(=S)o2)o1	-0.4	0.1
O=C(c1ccco1)c1cn(-c2ccccc2)nc1C(=O)c1nc2ccccc2s1	0.1	-4.3
C[C@@H]1CN([C@H](C)CO)C(=O)c2cc(NS(=O)(=O)c3ccc(F)cc3)ccc2O[C@H]1CN(C)C(=O)NC1CCCCC1	0.4	0.1
COc1cccc(/C=C/C(=O)O)c1C(C)C	0.4	4.7
C[C@@H]1CN([C@@H](C)CO)C(=O)c2cccc(NC(=O)C3CC3)c2O[C@@H]1CN(C)CC1CCCCC1	nt	-3.4
NS(=O)(=O)c1cccc2c1c([N+](=O)[O-])cc1[nH]c(=O)c(=O)[nH]c12	0.2	-4.4
CC(C)COc1ccc(C(=S)N2CCCCC2)cc1	-0.7	23.7
C[C@H]1CN([C@@H](C)CO)C(=O)c2cc(NC(=O)Nc3ccccc3)ccc2O[C@H]1CN(C)Cc1ccc(C(=O)Nc2ccccc2N)cc1	nt	-1.3
CNC(=O)C1CC(=O)N(C2CCCCCC2)C1 (stereo unspecified)	0.3	0.7
Cn1c(O)c(C=NC23CC4CC(CC(C4)C2)C3)c(=O)n(C)c1=O	-0.1	0.6
COc1ccc(S(=O)(=O)Nc2cccc3c2O[C@@H](CN(C)S(=O)(=O)c2cccs2)[C@H](C)CN([C@H](C)CO)C3=O)cc1	nt	2.7
Cc1cc(N2CCC(C)CC2)nc2ccc(NC(=O)CCC(=O)N3CCC(C)CC3)cc12	nt	8.6
C[C@H]1CN([C@@H](C)CO)C(=O)c2cc(NC(=O)CCCCCC(=O)Nc3ccccc3N)ccc2O[C@@H]1CN(C)S(=O)(=O)c1cccs1	nt	-2.7
COc1ccc(S(=O)(=O)N(C)C[C@H]2Oc3c(cccc3N(C)C)C(=O)N([C@@H](C)CO)C[C@@H]2C)cc1	nt	-1.9
C[C@@H]1CN([C@@H](C)CO)C(=O)c2cccc(NC(=O)Nc3ccccc3)c2O[C@@H]1CN(C)Cc1ccncc1	nt	-1.4
C[C@H](CO)N1C[C@H](C)[C@H](CN(C)Cc2ccc(C(F)(F)F)cc2)Oc2ccc(NC(=O)Nc3ccc4c(c3)OCO4)cc2C1=O	1.1	-9.8
C[C@@H]1CN([C@@H](C)CO)C(=O)c2cccc(NC(=O)C3CCOCC3)c2O[C@H]1CN(C)S(=O)(=O)c1ccccc1	nt	-0.4
C[C@@H]1CN([C@H](C)CO)C(=O)c2cccc(NS(=O)(=O)c3ccc(F)cc3)c2O[C@H]1CN(C)CC1CCCCC1	nt	2.4
COc1ccc(NC(=O)c2oc3ccccc3c2NC(=O)c2ccccc2)cc1	0.2	21.7
Cc1noc(C)c1NC(=O)Nc1cccc2c1O[C@@H](CN(C)S(=O)(=O)c1ccc(F)cc1)[C@H](C)CN([C@H](C)CO)C2=O	nt	-6.1
CC1CC(C)CN(C(=O)Cn2c(=O)n(-c3ccc(Cl)cc3)c(=O)c3c4c(sc32)CCC4)C1 (stereo unspecified)	nt	-12.5
COC(=O)c1ccc(CN2CCN(c3ccccc3OC)CC2)cc1	-0.7	0.1
C=CCn1c(=O)c2c(C)c(C)sc2n2c(Nc3ccc(C(=O)OCC)cc3)nnc12	-0.2	-3.1
C[C@@H]1CN([C@@H](C)CO)C(=O)c2cccc(NC(=O)Nc3ccccc3)c2O[C@@H]1CN(C)C(=O)Nc1ccc(F)cc1	nt	-0.4
Cc1cccc(C)c1N=C1Oc2ccccc2NC1(C)c1ccccn1 (stereo unspecified)	nt	-0.2
CCC(=O)N1c2ccccc2-c2nnc(SC)nc2OC1c1ccccc1 (stereo unspecified)	0.4	-1.2
CC(C)c1ccc(NC(=S)N(Cc2ccccc2)C(C)C)cc1	0.1	-2.4
C[C@H]1CN([C@@H](C)CO)C(=O)c2cccc(NS(C)(=O)=O)c2O[C@@H]1CN(C)S(=O)(=O)c1ccc(Cl)cc1	nt	-7.2
Cc1ccc2c(Sc3ccc(Cl)cc3)c(C(=O)NC3CCCC3)[nH]c2c1	0.1	-6.4
CN(C(=O)c1ccc2c(Cl)c3c(nc2c1)CCCC3)c1ccc(Cl)cc1	nt	-5.8
CC(C)NC(=O)Nc1ccc2c(c1)C(=O)N([C@H](C)CO)C[C@H](C)[C@@H](CN(C)S(=O)(=O)c1ccccc1)O2	0.4	-0.4
O=C1Nc2c(ccc(Cl)c2Cl)C(=O)C1(F)c1ccccc1 (stereo unspecified)	0.4	3.4
O=C1CCC(C(=O)Nc2ccccc2N2CCOCC2)=NN1	-0.9	-1.2
COc1ccc(/C=C2\SC(=O)N(c3ccc(C)cc3)C2=O)cc1	0.0	-2.9
CCCCn1c(=S)[nH]c2sc3c(c2c1=O)CCCC3	-1.0	3.5
C[C@@H]1CN([C@H](C)CO)C(=O)c2cc(NC(=O)NC3CCCCC3)ccc2O[C@H]1CN(C)CC1CCCCC1	-0.9	-2.7
Cc1ccc(NC(=O)CC(=O)Nc2ccc(C)cc2)cc1	-0.8	4.1
CCOc1ccccc1C1C(C(=O)N2CCOCC2)=C(C)Nc2nc3ccccc3n21 (stereo unspecified)	nt	1.1
O=C(CC1CCOCC1)Nc1ccc(I)cc1	-1.0	-1.6
CC(C)NC(=O)N(C)C[C@@H]1Oc2ccc(NC(=O)NC3CCCCC3)cc2C(=O)N([C@@H](C)CO)C[C@H]1C	-0.4	2.0
C/C=C1\[C@H](O[C@@H]2O[C@H](CO)[C@@H](O)[C@H](O)[C@H]2O)OC=C(C(=O)O)[C@H]1CC(=O)OCCc1ccc(O)cc1	-0.1	-5.5
C[C@H](CO)N1C[C@H](C)[C@H](CN(C)S(=O)(=O)c2ccc(Cl)cc2)Oc2ccc(NC(=O)CCC(F)(F)F)cc2C1=O	0.4	-0.9
Cc1ccc(S(=O)(=O)N(C)C[C@@H]2Oc3ccc(NC(=O)Nc4ccc(C(F)(F)F)cc4)cc3C(=O)N([C@@H](C)CO)C[C@H]2C)cc1	0.0	2.7
CCC(C)(C(=O)NC1CCCC1)N(C(C)=O)c1ccc(C)cc1 (stereo unspecified)	nt	-4.7
COc1cc(O)cc(C(=O)O)c1Oc1cc(C)cc(O)c1C(=O)O	0.1	15.9
CN(C)C(=S)Nc1cc(C(F)(F)F)cc(C(F)(F)F)c1	0.4	-0.1

# (continued)
canonical_smiles	A1 inhib	BJeLR viab HTS
Cc1ccc2[nH]c3c(N(C)C)ncnc3c2c1	-4.1	9.1
C[C@H](CO)N1C[C@H](C)[C@@H](CN(C)Cc2ccc(C(=O)O)cc2)Oc2ccc(NC(=O)c3ccncc3)cc2C1=O	0.4	1.9
O=C(C1Cc2ccccc2C1)N1CCOCC1	-0.2	0.3
C[C@@H]1CN([C@H](C)CO)C(=O)c2cc(NS(=O)(=O)c3ccc(F)cc3)ccc2O[C@H]1CN(C)S(=O)(=O)c1ccccc1	-0.9	1.5
CS(=O)(=O)Nc1cccc(C2=NN(C(=O)c3ccco3)C(c3ccccc3F)C2)c1 (stereo unspecified)	nt	-1.6
Cc1ccc(S(=O)(=O)c2n[nH]n3c2nc(=O)c2ccccc23)cc1	-0.1	0.6
O=C(OCc1ccc(Cl)cc1Cl)c1ccc2ccccc2n1	0.0	0.5
O=C(c1ccccc1)N(c1ccccc1)c1ccccc1	0.2	6.1
Cc1oc(C(C)(C)C)cc1C(=O)Nc1ccc(C(C)C)cc1	0.1	8.2
C[C@@H]1CN([C@@H](C)CO)C(=O)c2cc(NC(=O)Cc3ccccc3)ccc2O[C@@H]1CN(C)S(=O)(=O)c1ccccc1	0.2	-0.2
CC1CCCN(C(=O)C(Cc2ccccc2)NS(=O)(=O)c2ccc3c(c2)CCC(=O)N3)C1 (stereo unspecified)	nt	-3.4
C[C@H](CO)N1C[C@H](C)[C@H](CN(C)CC2CC2)Oc2ccc(NC(=O)Cn3cnnn3)cc2C1=O	0.3	-0.3
Cc1nn2c(=O)cc(CSc3nc4ccccc4[nH]3)nc2s1	-0.9	-2.4
Cc1nn(C)c(C)c1/C=C/C(=O)C(C)(C)C	0.0	-0.3
CSc1nnc2c(n1)OC(C)N(C(C)=O)c1ccccc1-2 (stereo unspecified)	0.1	-6.9
C[C@H](CO)N1C[C@H](C)[C@H](CN(C)S(=O)(=O)c2cccs2)Oc2ccc(NS(=O)(=O)c3ccc(Cl)cc3)cc2C1=O	-0.3	-5.0
COc1ccccc1-c1cc(=O)c2ccccc2o1	0.1	-8.2
CC(C)NC(=O)Nc1cccc2c1O[C@@H](CN(C)C(=O)Nc1ccc(F)cc1)[C@@H](C)CN([C@@H](C)CO)C2=O	nt	2.0
CNC(=O)c1cc(C#N)c(SC)s1	0.1	-1.3
C[C@@H]1CN([C@H](C)CO)C(=O)c2cccc(NC(=O)Nc3ccc(F)cc3)c2O[C@H]1CN(C)S(=O)(=O)c1cn(C)cn1	nt	-1.3
C=CCn1c(CCn2c3ccccc3c3ccccc32)n[nH]c1=S	nt	2.0
C[C@H](CO)N1C[C@H](C)[C@H](CN(C)S(C)(=O)=O)Oc2ccc(NC(=O)Nc3ccc(C(F)(F)F)cc3)cc2C1=O	-0.3	3.0
COc1cccc(-c2noc(-c3ccc(Br)o3)n2)c1	-6.0	4.1
C[C@@H]1CN([C@H](C)CO)C(=O)c2cc(NS(=O)(=O)c3cn(C)cn3)ccc2O[C@@H]1CN(C)S(=O)(=O)c1cccs1	-0.1	-8.6
C[C@H]1CN([C@@H](C)CO)C(=O)c2cc(NC(=O)Cc3cn(C)c4ccccc34)ccc2O[C@@H]1CN(C)Cc1ccccc1	-0.1	1.0
NNC(=O)c1cc(-c2ccccc2)n[nH]1	0.3	-6.6
NNC(=O)C1C(C(=O)NN)C1c1ccccc1 (stereo unspecified)	-0.5	3.2
C[C@@H]1CN([C@@H](C)CO)C(=O)c2cc(NS(=O)(=O)c3ccc(Cl)cc3)ccc2O[C@H]1CN(C)S(=O)(=O)c1ccc(Cl)cc1	-0.6	5.1
C=CCC1OC(=O)CCNC(=O)C(C)N(C)C(=O)C(C(C)C)N(C)C(=O)C(C(C)CC)NC(=O)C2CCCN2C1=O (stereo unspecified)	0.2	-7.9
CN(CCOC(=O)c1ccccc1)c1cc(C(F)(F)F)nc2ccccc12	-0.2	-0.6
NC(=O)c1ccccc1NC(=O)CCCOc1ccc(Cl)cc1Cl	0.0	4.8
CC(C)CNCC1COc2ccccc2O1 (stereo unspecified)	nt	-1.7
Cc1ccc(OC(=O)c2ccccc2)c(-n2nc3ccccc3n2)c1	-6.4	2.8
Cc1noc(C)c1NC(=O)Nc1ccc2c(c1)C(=O)N([C@H](C)CO)C[C@H](C)[C@H](CN(C)Cc1ccc(-c3ccccc3)cc1)O2	-0.2	-1.9
CCc1nc2cc3sc(CC)nc3cc2s1	nt	1.0
C[C@@H]1CN([C@@H](C)CO)C(=O)c2cc(NS(=O)(=O)c3cn(C)cn3)ccc2O[C@H]1CN(C)C(=O)NC1CCCCC1	-0.7	-1.8
Cc1ccc(S(=O)(=O)Nc2cccc3c2O[C@@H](CN(C)C(=O)Nc2c(C)noc2C)[C@H](C)CN([C@H](C)CO)C3=O)cc1	nt	-1.3
CC(C)(C)NC(=O)c1ccc(COCC(F)(F)F)o1	nt	-4.6
C[C@@H]1CN([C@@H](C)CO)C(=O)c2cccc(NC(=O)C3CCOCC3)c2O[C@@H]1CN(C)C(=O)Nc1ccc2c(c1)OCO2	nt	-2.3
CCc1ccc(NC(=O)CC(NCc2ccccc2)C(=O)O)cc1 (stereo unspecified)	0.5	-4.2
C[C@@H]1CN([C@@H](C)CO)C(=O)c2cccc(NS(=O)(=O)c3ccc(F)cc3)c2O[C@@H]1CN(C)CC1CCCCC1	nt	-0.9
CC(C)(c1ccccc1)c1cc(CN2CCOCC2)c(O)c(CN2CCOCC2)c1	-0.1	1.2
C[C@@H]1CN([C@@H](C)CO)C(=O)c2cc(NC(=O)Nc3ccccc3)ccc2O[C@H]1CN(C)Cc1ccc(-c2ccccc2)cc1	-0.3	-0.9

# Only part of the results is shown. The share of hits here may be higher or lower than overall.
